Screening results from PubChem BioAssay.
CDC25B CDK2 inh = human CDC25B-CDK2/CyclinA binding inhibition. HTRF CDC25B-CDK2/CyclinA binding, anti-His/anti-Flag; hits give high values. 0.72% of 94,000 active. z-score (no concentration beside the values);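 also: score is relative to mean and SD of negative controls; strong numbers were not always called active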
TAR Tat displ = HIV-1 TAR-Tat binding disruption; HIV-1 TAR RNA, Tat peptide displacement FRET; hits give high values; z-score (test concentration not listed); 0.6% of 100,000 active;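 also: score is relative to mean and SD of negative controls; some compounds called inactive have numbers as strong as hits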
* = called active by the depositor; · = no result given.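 The calls were made as follows: active = z-score from 3 up in half or more of its runs; inactive = the rest.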

Each structure is followed by: CDC25B CDK2 inh | TAR Tat displ
CCOC(=O)CCC(=O)O[C@H]1[C@H](O[C@@H]2[C@@H](C)[C@H](O[C@H]3C[C@@](C)(OC)[C@@H](O)[C@H](C)O3)[C@@H](C)C(=O)O[C@H](CC)[C@@](C)(O)[C@H](O)[C@@H](C)C(=O)[C@H](C)C[C@@]2(C)O)O[C@H](C)C[C@@H]1N(C)C
  · | 2.1
O=C(O)C(c1ccc(Cl)cc1)c1ccc(Cl)cc1
  3.4 | 1.4
O=C(Cn1nc(C(F)(F)F)c2c1CCCC2)Nc1ccc(F)c(Cl)c1
  0.11 | 0.26
O=C(Nc1cccnc1)C1CCCS1 (stereo not drawn)
  -2.4 | ·
O=C1CCCc2cc(S(=O)(=O)N3CCCC3C(=O)NC3CCCCC3)ccc2N1 (stereo not drawn)
  · | 0.17
COc1ccc(Oc2cccc(Cl)c2CNC(=O)CSCC(=O)O)cc1
  -1.5 | ·
Cc1cccc(N(C)S(=O)(=O)c2cn(C)cn2)c1
  · | 1.5
CN(C)c1oc(-c2cccs2)nc1S(=O)(=O)c1ccc(Cl)cc1
  -0.91 | -1.3
CC1=NN(C)C(=O)/C1=N\OS(=O)(=O)c1ccc(Cl)cc1
  -0.73 | ·
COC(=O)C1C2C=CC3(CN(Cc4cccs4)C(=O)C13)O2 (stereo not drawn)
  -0.31 | 0.34
CN1C(=O)CSc2ccc(NC(=O)Nc3ccccn3)cc21
  2.5 | 0.08
COCCNC(=O)CN1C(=O)CCSc2ccc(S(=O)(=O)N3CCCC3)cc21
  · | 2
Cc1cc(Br)ccc1OCc1nc(-c2ccccn2)no1
  0.79 | 0.06
O=S(=O)(CCc1ccccc1)NCCc1csc(-c2cccc(F)c2)n1
  · | -0.68
O=C(C1=C(Nc2ccc(F)cc2)c2ccccc2S1(=O)=O)N1CCOCC1
  · | 0.92
CN(CCc1ccccn1)S(=O)(=O)c1ccc(F)cc1
  -1.1 | 1.9
O=C1CC(Nc2ccccc2)C(=O)N1c1ccc(N2CCOCC2)cc1 (stereo not drawn)
  -1 | 1.4
COCCNC(=O)c1cnc(N2CCOCC2)nc1C
  · | 0.75
CC1(C)CC(=O)c2c(oc3ccc(NS(=O)(=O)c4ccc5ccccc5c4)cc23)C1
  -0.99 | 0.72
CCc1nnc2c3ccccc3nc(NC3CCN(Cc4ccccc4)CC3)n12
  · | 0.96
O=c1ccc(-c2ccc(S(=O)(=O)NCCc3ccc(Cl)cc3)o2)n[nH]1
  · | 0.89
Nc1ccc2nc(C(F)(F)F)[nH]c2c1
  1.1 | 2.3
CCn1c(SCC(=O)Nc2nccs2)nnc1-c1cc2ccccc2o1
  · | 3
O=C(Nc1nncs1)c1cc(-c2cccc(Br)c2)nc2ccccc12
  -4.8 | ·
Cc1ccn2c(=O)c(Cc3nnc(SCC(=O)Nc4nnc(C)s4)n3C)c(C)nc2c1
  -1.3 | -0.01
Cc1ccc(CNS(=O)(=O)c2ccc(-c3cc(C)[nH]n3)s2)cc1
  · | -0.44
Fc1ccc2c(c1)c1nnc(SCCN3CCOCC3)nc1n2Cc1ccccc1
  0.11 | -0.08
CSc1ccc(CCNC(=O)CCC(=O)N2CCSc3ncccc32)cc1
  · | -2.2
COc1ccc(C)cc1NS(=O)(=O)c1c(C)nc2scc(C)n2c1=O
  -1.6 | 1.5
Cc1ccc(C2Nn3c(C)nnc3SC2C(=O)Nc2ccc(C)cc2Br)cc1 (stereo not drawn)
  -2.2 | -0.82
COc1ccc(S(=O)(=O)NCc2ccccn2)cc1
  1.1 | ·
O=C(Nc1ccc(S(=O)(=O)N2CCc3ccccc32)cc1)c1cccc([N+](=O)[O-])c1
  1 | ·
O=C(Nc1nnc(SCc2nc3ccccc3[nH]c2=O)s1)c1ccco1
  · | 1
CCc1ccc(-n2c(O)cnc2Nc2nc(C)cc(C)n2)cc1
  -1.4 | 0.22
O=C(OCn1nnc2ccccc2c1=O)c1ccc2c(c1)OCO2
  -1.4 | ·
CCCC(CCC)C(=O)NCCc1cc2ccc(C)c(C)c2[nH]c1=O
  -1.6 | ·
O=C(NCCc1ccc(Cl)cc1)c1ccc(Cl)c(NC2=NC3CS(=O)(=O)CC3S2)c1 (stereo not drawn)
  · | 0.35
COc1cc(Nc2ncc3c(n2)CCN(Cc2sccc2C)C3)cc(OC)c1
  · | 0.93
Cc1cc(C)c(NC(=O)C(C)n2nc(-c3ccc(C)c(C)c3)ccc2=O)c(C)c1 (stereo not drawn)
  -1.9 | 1.3
c1ccc(Cc2nnc(SCc3nc(-c4cccs4)no3)n2-c2ccccc2)cc1
  -0.69 | 0.91
Cc1cc(=O)n2nc(N3CCC(C(=O)NC4CCCc5ccccc54)CC3)sc2n1 (stereo not drawn)
  0.02 | 3.7
Cn1c(=O)c2c(-c3cccc(Br)c3)n(C(CO)(CO)CO)cc2n(C)c1=O
  0.09 | 1.7
C=CCNc1oc(-c2ccc(F)cc2)nc1C#N
  -0.29 | 1.3
O=C(CCc1nnc2ccc(NCc3ccccc3)nn12)NCCN1CCCC1
  · | 1.6
O=C(C1CC1)N1CCCc2cc(NS(=O)(=O)c3cc(F)ccc3F)ccc21
  · | -0.35
O=C(O)c1ccc(S(=O)(=O)c2ccc3c(c2)C(=O)N(Cc2ccc(Cl)cc2)C3=O)cc1
  0.03 | ·
COc1ccc(Cl)cc1NC(=O)C1Nc2ccccc2S(=O)(=O)N1 (stereo not drawn)
  · | 1.2
O=c1cc(-c2cccnc2)nc2cc(-c3ccco3)[nH]n12
  19* | ·
O=C(Cc1cccc(F)c1)Nc1nnc(SCc2nnc(-c3ccccc3)o2)s1
  · | 1.3
Cc1cc(-n2cnc(-c3cn[nH]c3C)n2)no1
  -0.12 | ·
CC1=C(C(=O)NCCCN2CCCCC2)C2(CCN(S(C)(=O)=O)CC2)OC1=O
  · | 1.4
CS(=O)(=O)N1CCN(c2ncc(C(F)(F)F)cc2Cl)CC1
  0.4 | ·
CCC1(C)N=C(c2ccc3c(c2)OCO3)CC(c2ccccc2O)N1 (stereo not drawn)
  -1.6 | ·
Cc1cc(=O)n2nc(N3CCCC(C(=O)NCCCN4CCc5ccccc5C4)C3)sc2n1 (stereo not drawn)
  0.16 | 1.4
O=S(=O)(c1cccc(F)c1)N1CCC(c2nc3ccccc3s2)CC1
  0.45 | 0.86
CC(=O)OC[C@H]1O[C@@H](NC(N)=O)[C@H](OC(C)=O)[C@@H](OC(C)=O)[C@@H]1OC(C)=O
  -1.8 | ·
CC1(C)Cc2nc3oc4c(N5CCCC5)ncnc4c3cc2CO1
  · | 0.61
CC1CCN(c2c(NCC3CCC(C(=O)N4CCOCC4)CC3)c(=O)c2=O)CC1 (stereo not drawn)
  -1.3 | -0.22
O=C(NCCCO)c1c(O)c2c([nH]c1=O)CCCC2
  · | 0.51
CC(=O)N1N=C(c2ccccc2Br)OC1c1ccncc1 (stereo not drawn)
  · | 2.6

Going on with the list:
Each structure is followed by: CDC25B CDK2 inh | TAR Tat displ
O=C1c2ccccc2C(Nc2ccccc2Cl)N1c1ccccn1 (stereo not drawn)
  0.45 | 1.1
COc1ccc(N2C(=O)C3CC=CC(C)C3C2=O)cc1Cl (stereo not drawn)
  -3.2 | ·
O=S(=O)(Nc1ncn(Cc2ccc(Cl)cc2)n1)c1cc(F)ccc1F
  -1.2 | 0.94
CC(C)(C)[C@H]1COC(CC2=N[C@@H](C(C)(C)C)CO2)=N1
  -0.28 | ·
COc1ccc(OCCNC(=O)c2ccc3nccnc3c2)cc1
  -4.4 | ·
CC1=C(C(=O)OC2CCCC2)C(c2ccc(F)c(F)c2)C2=C(CCCC2=O)N1 (stereo not drawn)
  -4.8 | 0.01
CCOC(=O)c1ccc2[nH]c(-c3ccc(F)cc3)cc(=O)c2c1
  -1.4 | 0.27
COc1ccccc1N1CCN(C2=C(C(=O)N3CCOCC3)S(=O)(=O)c3ccccc32)CC1
  · | 0.68
NC(CSC1CCCCO1)C(=O)O (stereo not drawn)
  -0.62 | 1.1
OC(CC#CCN1CCCCC1)(c1ccccc1)c1ccccc1
  -0.22 | ·
COC(=O)c1ccc(NS(=O)(=O)c2c(C)nc3sc(C)cn3c2=O)cc1
  · | 0.09
COc1ccc2scc(N3CCc4ccccc4C3)c(=O)c2c1
  · | 0.59
CC(C)c1nnc2sc(COc3ccc(C(C)(C)C)cc3)nn12
  1.1 | 0.21
Cc1c(NC(=O)Nc2ccc(C(C)C)cc2)c(=O)n(-c2ccccc2)n1C
  -1.7 | 1.8
CC1(C)CC(=O)c2cc(C(=O)Nc3ccc(Cl)cc3)c(=O)[nH]c2C1
  -4.9 | -0.72
Fc1ccccc1-c1noc(N2CCN(c3ccccc3)CC2)n1
  · | 0.12
O=C(NCc1nnnn1-c1ccccc1)Nc1c(F)cccc1F
  · | 1.6
COc1cccc(C2=NC(C(C)C)NC(c3cc(Cl)ccc3O)C2)c1 (stereo not drawn)
  · | -1.8
Cc1cc(=O)nc2c3ccccc3n(C(C)C(=O)Nc3ccc(F)cc3)n12 (stereo not drawn)
  -0.04 | -1.1
CC1CCCCN1CCCNC(=O)c1c(O)nc2ccccn2c1=O (stereo not drawn)
  -1.7 | -0.77
O=C(CSc1nc2cc3c(cc2c(=O)n1Cc1ccc2c(c1)OCO2)OCO3)NCc1ccco1
  · | 0.91
O=C(CSc1nnc2ccccn12)Nc1ccc2c(c1)OCCO2
  -1.5 | ·
Cc1nc(-n2cccc2)sc1C(=O)NCc1cccs1
  -1.7 | 1.6
COc1ccc(OC)c(C2CC(=O)C3=C(C2)NC(=O)CC3c2ccc(SC)cc2)c1 (stereo not drawn)
  -1.4 | 1.8
Cn1c(-c2ccco2)n[nH]c1=S
  0.25 | ·
c1ccc(-c2[nH]c3ccccc3c2-c2ccccc2)cc1
  -0.77 | ·
CCN1CCC2(CC1)OC(=O)C(C)=C2C(=O)Nc1ccc(Br)cc1F
  · | 0.43
O=C(CCC1CCCC1)N1CCN(S(=O)(=O)c2ccc3ccccc3c2)CC1
  -1.1 | 0.87
COc1ccc(Cl)cc1NC(=O)c1csc2c1CCCC2
  -1.9 | -0.79
COc1ccc(N2CC(O)=C(c3nc4ccccc4c(=O)[nH]3)C2=N)cc1Cl
  -3.2 | 3.5
Cc1ncc(-c2ccc(C)c(S(=O)(=O)N3CCC(C)CC3)c2)o1
  · | 0.59
Cc1nn(CC(=O)N2CCCC2)c(=O)c2cc3sccc3n12
  -2.3 | ·
COc1ccc(OC)c(CNc2ncnc3onc(C)c23)c1
  · | 0.65
COc1ccccc1C1Nc2ccc3ncccc3c2C2=C1C(=O)CC(C)(C)C2 (stereo not drawn)
  -0.36 | 3.8
O=C(NCCN1CCN(c2ccccc2)CC1)Nc1ccccc1Br
  1.2 | -0.09
Cc1cccc(OCCSc2nc(-c3ccccc3F)nc3cc(=O)[nH]n23)c1
  · | -0.05
Cc1cc(F)ccc1NS(=O)(=O)c1ccc2oc(=O)c3ncn(C)c3c2c1
  · | 0.12
CC(=O)Nc1nnc2n1CCCS2
  · | 0.35
Cc1ccc(-n2c(=O)c(C#N)cc3c(=O)n4ccccc4nc32)cc1C
  -0.53 | 1.3
O=C(CC(C(=O)c1cccnc1)c1ccc2c(c1)OCO2)c1ccc(Cl)cc1 (stereo not drawn)
  0.08 | ·
CC(C)CCN(C(C)c1cccs1)S(=O)(=O)c1csc(C(N)=O)c1 (stereo not drawn)
  · | 0.15
N#Cc1cccc(CSc2ccc(Cl)cc2)c1
  -1.2 | ·
O=C(NCc1ccc2c(c1)OCO2)c1cc2c(s1)-c1ccsc1CC2
  · | -0.53
NC(=O)C1CCN(c2nc(-c3cccc(Cl)c3)c3c(n2)-c2ccccc2OC3)CC1
  -1.9 | 3
CCOc1ccc(C2c3c(-c4cc(C)ccc4O)n[nH]c3C(=O)N2Cc2cccnc2)cc1 (stereo not drawn)
  -0.95 | -0.94
N[C@@H](CCC(=O)N[C@@H](CCSC(CC(=O)O)C(=O)O)C(=O)NCC(=O)O)C(=O)O (stereo partly drawn)
  · | 2.1
CC(=C\c1cccc([N+](=O)[O-])c1)/C(C)=N/O
  -1.6 | ·
CN1CC=C(Cc2n[nH]c(=O)c3ccccc23)CC1
  -1.1 | -1.9
CN(C(=O)COc1ccc([N+](=O)[O-])cc1)C1CCS(=O)(=O)C1 (stereo not drawn)
  -1.8 | ·
COc1ccc(C2CC(=O)N3C(=C2C#N)SCC3(O)c2ccc(OC)c(OC)c2)cc1 (stereo not drawn)
  -1.4 | ·
CCCN1CCN(CCCNC(=O)c2sc3nc4n(c(=O)c3c2C)CCCCC4)CC1
  · | 3.1
CCc1c(C)nc2nncn2c1NCc1ccccc1Cl
  -1.3 | 1.4
Cc1ccc(S(=O)(=O)NCCc2sc(-c3ccc(Cl)cc3)nc2C)cc1
  · | 0.65
CN(c1ccc(Cl)cc1)S(=O)(=O)c1nnc(NC(=O)C2CCCCC2)s1
  -0.49 | -0.04
Cc1nnc(SCC(=O)Nc2sc3c(c2C#N)CCC3)s1
  -1.4 | -6
Cc1ccc(-c2nc(NCCN3CCOCC3)c3ccccc3n2)cc1
  -1.7 | 0.72
Nc1nncn1C(=O)c1ccc2c(c1)OCO2
  0.33 | 0.76
Clc1ccc(CSc2nc3ncccc3o2)cc1
  · | 0.19

Profiles as entered above:
Nc1nncn1C(=O)c1ccc2c(c1)OCO2 is listed with CDC25B CDK2 inh = 0.33; TAR Tat displ = 0.76
CN1CC=C(Cc2n[nH]c(=O)c3ccccc23)CC1 is listed with CDC25B CDK2 inh = -1.1; TAR Tat displ = -1.9
N[C@@H](CCC(=O)N[C@@H](CCSC(CC(=O)O)C(=O)O)C(=O)NCC(=O)O)C(=O)O (stereo partly drawn) is listed with CDC25B CDK2 inh = ·; TAR Tat displ = 2.1
